From PubChem
VDR inhibitor: blocks the human vitamin D receptor. P11473. VDR-SRC2-3 peptide fluorescence polarization, 2 h. Potency, µM, for the others: max response, negative = inhibition, actives largely listed as inhibitors. actives 0.93% (n = 400,000); active = well fitted inhibition curve with a large enough effect; inconclusive = small, poorly fitted or top-dose-only effect, or another doubt; inactive = no such curve, though single readings can be large or run the other way; also: series mostly up to about 120 µM
Target sequence (P11473 whole entry, looked up): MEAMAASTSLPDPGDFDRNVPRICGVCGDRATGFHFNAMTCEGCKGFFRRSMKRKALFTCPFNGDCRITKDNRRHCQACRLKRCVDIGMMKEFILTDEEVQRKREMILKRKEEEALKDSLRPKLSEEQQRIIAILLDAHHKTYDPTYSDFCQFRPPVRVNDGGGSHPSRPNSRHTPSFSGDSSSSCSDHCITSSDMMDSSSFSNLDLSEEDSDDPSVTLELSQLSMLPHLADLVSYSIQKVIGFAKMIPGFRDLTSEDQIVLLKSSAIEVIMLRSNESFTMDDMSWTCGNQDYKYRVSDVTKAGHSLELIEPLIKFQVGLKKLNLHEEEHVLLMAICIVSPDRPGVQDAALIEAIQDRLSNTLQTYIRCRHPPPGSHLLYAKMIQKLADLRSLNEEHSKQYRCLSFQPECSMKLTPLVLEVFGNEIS
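Two reagent solutions held at 4 deg C in the dark were dispensed, compounds pinned at 23 nl, and the mixture incubated 2 h at room temperature. Read-out: fluorescence polarization of VDR–SRC2-3 peptide binding.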
* hit, by the source's call; ? = inconclusive. % is scaled to controls: 0 for no effect and ±100 for the full control effect; potency is read from the fitted curve at half-maximal effect. Some of the compounds tested, so the mix of outcomes need not match the whole.

SMILES	VDR inhibitor
CC[C@H](C)NC(=O)c1ccc(Cn2c(=S)[nH]c3c([nH]c4ccc(OC)cc43)c2=O)cc1	9%
O=C(CCCSc1nc2ccccc2s1)NCc1ccco1	-21%
Cc1ccc(C(=O)C(C)OC(=O)C2=COCCO2)cc1C (stereo not given)	19%
Cc1ccc(-c2csc(NC(=O)CSc3nc(C)cs3)n2)cc1	5%
CCOc1cc2c(cc1O)CCC1C2CCC2(C)C(O)CCC12 (stereo not given)	14%
CCC(Cc1ccccc1)NC(=O)CCc1ccccc1 (stereo not given)	-22%
Cc1c(CCO)c(=O)[nH]n1S(=O)(=O)c1ccccc1	9%
COc1ccc(C(=O)N/C(=C\c2ccc3c(c2)OCO3)C(=O)Nc2ccc(C(=O)O)cc2)cc1	11%
CCc1ccc(C2CC(c3ccccc3Cl)Nc3nc(N)nn32)cc1 (stereo not given)	-17%
N#C/C(=C\c1ccc(-c2ccc([N+](=O)[O-])cc2)o1)C(=O)Nc1nc(-c2cccs2)cs1	-11%
Cc1nnc(N2CCC(C(=O)NC(C)C)CC2)c2nn(-c3ccc(Cl)cc3)c(C)c12	5%
COc1cccc(Nc2nc(-c3sc(NC(=O)CC(C)C)nc3C)cs2)c1	-6%
Cc1ccc(SCc2cc(=O)[nH]c(N3CCN(Cc4ccccc4)CC3)n2)cc1	0%
CCC1(CC)NC(=O)N(CC(=O)OCC(=O)c2ccccc2OC)C1=O	18%
Cc1ccc(Oc2ccc(NC(=O)c3ccco3)cc2)cc1	-4%
CCCc1nnc(NC(=O)CCC(=O)NC2CC2)s1	12%
CC(C)C[C@H](NC(=O)c1nc[nH]c1C(=O)N[C@@H](CC(C)C)C(=O)OCc1ccccc1)C(=O)OCc1ccccc1	-4%
O=C(O)c1ccccc1-c1ccccc1C(=O)NCCCO	15%
O=C(CCC(=O)c1cccs1)NNC(=O)c1cc(Cl)ccc1Cl	8%
Cn1c(-c2ccco2)n[nH]c1=S	1%
Cc1cn(C)c(=O)n(C)c1=O	-12%
CC(C)C1Nc2c(O)cc(Cl)c([N+](=O)[O-])c2C2C=CCC21 (stereo not given)	25%
CCCC(C(=O)Nc1ccc(C)c(S(=O)(=O)N2CCOCC2)c1)c1ccccc1 (stereo not given)	-8%
Cc1ccc(Cl)cc1NS(=O)(=O)c1cn(C)nc1C	-9%
CCOc1ccc(N2C(=O)CC(/C=C3/N(C)c4ccccc4C3(C)C)C2=O)cc1 (stereo not given)	-13%
COc1ccc(CCC(=O)NNC(=O)Nc2ccc(C(C)=O)cc2)cc1	12%
O=C(O)COc1ccc2c(c1)O/C(=C\c1ccco1)C2=O	-1%
CC1CCCCN1CCCNC(=O)c1c(O)nc2ccccn2c1=O (stereo not given)	-2%
Nc1nn2cc(-c3ccccc3)nc2c2ccccc12	-17%
N#C/C(=C\c1ccc([N+](=O)[O-])cc1)C(=O)Nc1ccccc1O	?

Taken from above:
Under VDR inhibitor, `COc1ccc(CCC(=O)NNC(=O)Nc2ccc(C(C)=O)cc2)cc1` reads 12%
Under VDR inhibitor, `CCCC(C(=O)Nc1ccc(C)c(S(=O)(=O)N2CCOCC2)c1)c1ccccc1` (stereo not given) reads -8%
Under VDR inhibitor, `CC(C)C[C@H](NC(=O)c1nc[nH]c1C(=O)N[C@@H](CC(C)C)C(=O)OCc1ccccc1)C(=O)OCc1ccccc1` reads -4%
Under VDR inhibitor, `Cc1ccc(Cl)cc1NS(=O)(=O)c1cn(C)nc1C` reads -9%
Under VDR inhibitor, `CCOc1ccc(N2C(=O)CC(/C=C3/N(C)c4ccccc4C3(C)C)C2=O)cc1` (stereo not given) reads -13%

Next results follow.
SMILES	VDR inhibitor
O=C(Nc1ccc2nc(SCCOc3ccccc3)sc2c1)c1ccccc1F	9%
CCCc1cc(=O)[nH]c(SCCc2ccccc2)n1	-8%
Cc1ccc(CCNC(=O)c2ccc3c(c2)N(Cc2ccccc2F)C(=O)c2ccccc2S3=O)cc1 (stereo not given)	-15%
CC1=C(C(=O)Nc2ccccc2)C(c2ccc(Br)cc2)n2nc(CCCO)nc2N1 (stereo not given)	1%
CCOc1ccccc1-n1c(SCC(=O)N(CC)CC)nnc1-c1ccccn1	5%
Cc1cccc(Cn2cc(C(=O)Nc3cc(F)ccc3F)ccc2=O)c1	13%
COc1cc(O)c2c(=O)c3c(OC)c(O)ccc3oc2c1	-16%
Cc1ccc(NC(=O)CCC(=O)N/N=C/C=C/c2ccccc2)cc1	0%
COc1ccc(CNC(=O)C2CCN(S(=O)(=O)c3ccc(SC)cc3)CC2)cc1	-18%
O=C(CSc1nnc2ccccn12)Nc1ccc2c(c1)OCCO2	-12%
Cc1cccc(NC(=O)C(C)SCc2nc3sc4c(c3c(=O)[nH]2)CCCC4)n1 (stereo not given)	8%
O=C(Nc1ccc(Oc2ncccn2)cc1)c1ccco1	13%
CCCCOC(=O)c1ccc(NC(=O)c2ccoc2C)cc1	-12%
Nc1ccc2c(c1)-c1ccc(F)cc1C2=O	14%
Cc1nc2ccc(NC(=S)N3CCN(c4ccccn4)CC3)cc2nc1C	-23%

Shown field by field: entries from further up
Compound: O=C(Nc1ccc2nc(SCCOc3ccccc3)sc2c1)c1ccccc1F
  VDR inhibitor = 9%
Compound: CCCc1cc(=O)[nH]c(SCCc2ccccc2)n1
  VDR inhibitor = -8%
Compound: Cc1ccc(CCNC(=O)c2ccc3c(c2)N(Cc2ccccc2F)C(=O)c2ccccc2S3=O)cc1 (stereo not given)
  VDR inhibitor = -15%
Compound: CC1=C(C(=O)Nc2ccccc2)C(c2ccc(Br)cc2)n2nc(CCCO)nc2N1 (stereo not given)
  VDR inhibitor = 1%

Next section:
SMILES	VDR inhibitor
Cc1c(Cl)cccc1NC(=O)CS(=O)(=O)c1ccccc1	-6%
Nc1c(N(CCC2=CCCCC2)C(=O)CCCOc2ccccc2)c(=O)[nH]c(=O)n1Cc1ccccc1	-18%
CCOc1cc(NC(=S)NCC2CCCO2)c(OCC)cc1NC(=O)C1CC1 (stereo not given)	9%
CCC(=O)Nc1nc2ccc3sc(C)nc3c2s1	6%
Cn1c(N)c(C(=O)COC(=O)c2cnc(Cl)c(Cl)c2)c(=O)n(C)c1=O	7%
CCOc1ccccc1C(=O)N1CCC(c2nc3ccccc3o2)CC1	6%
CCCCn1c(N)c(N(CCOC)C(=O)CC(NC(=O)c2ccccc2Cl)c2ccccc2)c(=O)[nH]c1=O (stereo not given)	-16%
Cc1ccc(C)c(NC(=O)CSc2cn(CC(=O)N3CCCC3)c3ccccc23)c1	3%
O=C1C(Cl)=C(N2CCCCC2)C(=O)N1c1ccccc1Cl	?
Cc1ccc(C)c(N2CCN(S(=O)(=O)c3cc(C(=O)Nc4ccccc4C(F)(F)F)ccc3F)CC2)c1	0%
COCCN(C(=O)c1snc(C(N)=O)c1N)C(C(=O)NC1CCCCC1)c1ccc(OC)c(OC)c1 (stereo not given)	?
CC(C)CNC1=C(C(=S)Nc2ccccc2)C(=O)CC(C)(C)C1	-16%
COC(=O)c1cc(OC)c(OC)cc1NC(=O)CSc1nnnn1Cc1ccccc1	13%
Cc1cc(=O)n2nc(N3CCCC(C(=O)NCCCN4CCc5ccccc5C4)C3)sc2n1 (stereo not given)	-11%
CCc1cc(=O)oc2cc(C)cc(OCc3nn[nH]n3)c12	0%
CCC1(C)N=C(c2ccc3c(c2)OCO3)CC(c2ccccc2O)N1 (stereo not given)	4%
CC(=O)/C=C/c1ccc(C)o1	-18%
CCN(Cc1ccccc1)C(=O)COC(=O)c1cc(S(=O)(=O)Nc2c(C)n(C)n(-c3ccccc3)c2=O)ccc1C	9%
COc1cc(NC(=O)c2onc(C)c2Cl)cc(OC)c1OC	18%
CC(=O)Nc1ccc(N=NN2CCOCC2)cc1	?
COc1ccc(C2=NOC(CNC(=S)N3CCOCC3)C2)cc1 (stereo not given)	-3%
Cc1c(NC(=O)C(C)OC(=O)CCc2ccccc2)c(=O)n(-c2ccccc2)n1C (stereo not given)	-11%
O=C(CN1CCCCCCC1)Nc1ccc(Cl)cc1Cl	8%
CC(C)c1ccc(CNc2ncccn2)cc1	-17%
O=S(=O)(c1cccc(F)c1)N1CCC(c2nc3ccccc3s2)CC1	-1%
Cc1ccc(S(=O)(=O)N2CCN(C3CCN(Cc4ccccc4)CC3)CC2)cc1	7%
COC(=O)CC1C(=O)NCCN1C(=O)c1sc2ccccc2c1Cl (stereo not given)	-2%
O=C(O)c1ccc(Cl)c(NC(=S)NC(=O)c2cccc(COc3ccccc3)c2)c1	-10%
CCn1c(-c2csc(-c3ccccc3)n2)n[nH]c1=S	15%
COc1cccc(-c2ncc3ccccc3c2COC(=O)c2ccc(F)cc2)c1	-14%
COc1ccc(C(=O)OCC(=O)NC(=O)NC(C)C)cc1OC	2%
CSc1ccc(/C=C2\CCn3c2nc2cc(C(=O)O)ccc2c3=O)cc1	?
O=C(CN1CCCc2ccccc21)NCCc1ccc(Cl)cc1	-5%
Cc1ccc(Cl)cc1N1CCN(C(=O)c2ccc(NS(=O)(=O)c3c(C)noc3C)cc2)CC1	21%
COC(=O)N/N=C/c1c(C)nn(-c2cccc(Cl)c2)c1Cl	22%
O=C1CCCN2N=C(SCC(=O)Nc3ccc(OC(F)(F)F)cc3)SC2=N1	-4%
CSCc1ccc(C(=O)NC(C)c2ccc(-n3ccnc3)cc2)cc1 (stereo not given)	17%
O=C1NC(Cc2c[nH]c3ccccc23)C(=O)N1Cc1ccccc1 (stereo not given)	21%
COCCN1C(=O)Cc2c1nc(N)c1c(N)nc(N3CCN(c4ccc(F)cc4)CC3)c(C#N)c21	-11%
Cc1cc(N2C(=O)C(O)=C(C(=O)c3ccco3)C2c2ccc(O)cc2)no1 (stereo not given)	-14%
CCc1ccc2[nH]c(=O)c(CN(CCCN3CCOCC3)C(=O)Nc3cccc(Cl)c3)cc2c1	5%
O=C(Nc1ccc2nc(-c3ccccc3)oc2c1)c1ccco1	-14%
Cc1ccc2cc(CN(C)C(=O)C3CCCO3)c(=O)[nH]c2c1 (stereo not given)	4%
COc1ccc(C)cc1S(=O)(=O)n1ccnc1C	12%
O=C(c1ccc(CNS(=O)(=O)c2ccccc2)cc1)N1CCN(c2ccccn2)CC1	2%
Cc1ccc(NN=Nc2nc3c([nH]2)c(=O)n(C)c(=O)n3C)cc1	?
Cn1c(C23CC4CC(CC(C4)C2)C3)n[nH]c1=S	-21%
CC(C)(C)C(=O)CSc1ccc(S(=O)(=O)N2CCN(Cc3ccccc3)CC2)cn1	-19%
COc1ccccc1-c1nnc(C2CCN(S(=O)(=O)c3ccc(F)c(C)c3)CC2)o1	-8%
CCN(C(=O)COC(=O)C1COc2ccccc2O1)c1c(N)n(Cc2ccccc2)c(=O)[nH]c1=O (stereo not given)	-4%
O=C(NNC(=S)NCc1ccccc1)c1ccc(Br)cc1	-6%
Cc1ccccc1S(=O)(=O)Cc1ccc(C(=O)NC2CCCCCC2)o1	-11%
COc1ccc(NC(=O)C2CCN(S(C)(=O)=O)CC2)cc1Cl	-26%
COc1ccc2nc(N3C(=O)CC(Cc4ccc(C)cc4)C3=O)sc2c1 (stereo not given)	0%
O=C(CN1C(=O)c2ccccc2C1=O)N1CCN(C2c3ccccc3-c3ccccc32)CC1	3%
COc1ccc(NC(=O)CC2SC(N3CCCC3)=NC2=O)cc1Cl (stereo not given)	13%
COc1ccc(S(=O)(=O)N2CCN(CC(O)COc3ccc(CC#N)cc3)CC2)cc1OC (stereo not given)	7%
O=C(Nc1ccccc1)N1CCN(Cc2ccc(Cl)cc2)CC1	0%
Cc1cn(C2CCCCC2)c(=O)[nH]c1=O	-15%
OCC[C@@H]1C[C@H](O)[C@@H](O)[C@@]2(Cc3ccccc3CCO2)O1	1%

Random excerpt: 2 compounds from above, in no set order.
SMILES	VDR inhibitor
COc1ccc(NC(=O)CC2SC(N3CCCC3)=NC2=O)cc1Cl (stereo not given)	13%
COc1ccccc1-c1nnc(C2CCN(S(=O)(=O)c3ccc(F)c(C)c3)CC2)o1	-8%

Next results.
SMILES	VDR inhibitor
O=C(CSc1nnc(-c2ccncc2)n1-c1ccccc1)N1CCN(c2ccc(Cl)cc2)CC1	-14%
COc1ccc(NC(=O)c2sc3nc4c(cc3c2N)CN(C(C)C)CC4)c(OC)c1	-6%
CCOc1ccc(NC(=O)CSc2nc3ccccc3c(=O)n2CCNC(C)=O)cc1	-4%
CN1CCN(c2ncnc3ccc(-c4ccc5c(c4)OCO5)cc23)CC1	4%
Cc1ccccc1NC1=NCC(c2ccc([N+](=O)[O-])cc2)S1 (stereo not given)	-5%
COc1cc(OC)c(/C=C2\SC(=O)N(CC(=O)Nc3ccccc3F)C2=O)c(OC)c1	0%
Cc1cc2cc(CNS(=O)(=O)N(C)C)ccc2[nH]1	-11%
O=C(CN(C(=O)c1csnn1)c1cccc(Cl)c1)NC1CCCC1	4%
CCOC(=O)c1c(NC(=O)Nc2ccc(C)cc2)sc2c1CCN(C)C2	-13%
CCN(CC(=O)Nc1ccc([N+](=O)[O-])cc1OC)CC(=O)NC(C)(C)C	-17%
C=CCc1cccc(/C=N/NC(=O)CN2CCN(Cc3ccccc3)CC2)c1O	-5%
COC(=O)c1ccc(CNC(=O)COC(=O)c2ccccc2-c2ccccc2)cc1	-23%
CCCCN(C(=O)CSc1nc2ccccc2n1CC)C1CCS(=O)(=O)C1 (stereo not given)	7%
CCOC(=O)c1c(NC(=O)COc2ccccc2C#N)sc2c1CC(C)(C)NC2(C)C	-3%
CCOC(=O)c1c(NC(=O)C2=C(C)NC(=S)NC2c2ccc(F)cc2)sc(C)c1C (stereo not given)	-13%
